Screening results deposited in PubChem BioAssay by Broad Institute.
p53 mut binder: binds human mutant p53 on microarray. small molecule microarray binding, anti-GST fluorescence. calls only. 17,000 tested, 0.4% active. AID 624136;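 active = compounds whose four printed spots each glow above background more than chance allows, each with a p-value under 7%; compounds were printed on slides so no solution concentration is given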;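 note: about 2 pmol printed per array spot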
ID4 binder: ID4 (human) binding; P47928; small molecule microarray, Flag-ID4 binding, fluorescence F/B; calls only; 31,000 tested, 1.2% active;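 active = spot signal over background at p below 0.07 in all four prints; compounds were printed on slides so no solution concentration is given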;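 note: a binder raises fluorescence above local background on the spot; about 2 pmol printed per array spot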
Target sequence (P47928 whole entry, looked up): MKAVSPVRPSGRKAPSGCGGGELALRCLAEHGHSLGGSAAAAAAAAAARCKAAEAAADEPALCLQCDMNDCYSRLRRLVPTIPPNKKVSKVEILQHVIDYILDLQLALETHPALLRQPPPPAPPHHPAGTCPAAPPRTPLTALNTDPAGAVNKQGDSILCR
STAT3 binder: binders of human STAT3; P40763; Small molecule microarray, His-STAT3 binding, anti-His fluorescence; 17,000 tested, 0.2% active; calls only;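 active = compounds whose four printed spots each show fluorescence over background unusually high for their array block, chance value under 7%; compounds were printed on slides so no solution concentration is given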;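 note: about 2 pmol printed per array spot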
Target sequence (P40763 whole entry, looked up): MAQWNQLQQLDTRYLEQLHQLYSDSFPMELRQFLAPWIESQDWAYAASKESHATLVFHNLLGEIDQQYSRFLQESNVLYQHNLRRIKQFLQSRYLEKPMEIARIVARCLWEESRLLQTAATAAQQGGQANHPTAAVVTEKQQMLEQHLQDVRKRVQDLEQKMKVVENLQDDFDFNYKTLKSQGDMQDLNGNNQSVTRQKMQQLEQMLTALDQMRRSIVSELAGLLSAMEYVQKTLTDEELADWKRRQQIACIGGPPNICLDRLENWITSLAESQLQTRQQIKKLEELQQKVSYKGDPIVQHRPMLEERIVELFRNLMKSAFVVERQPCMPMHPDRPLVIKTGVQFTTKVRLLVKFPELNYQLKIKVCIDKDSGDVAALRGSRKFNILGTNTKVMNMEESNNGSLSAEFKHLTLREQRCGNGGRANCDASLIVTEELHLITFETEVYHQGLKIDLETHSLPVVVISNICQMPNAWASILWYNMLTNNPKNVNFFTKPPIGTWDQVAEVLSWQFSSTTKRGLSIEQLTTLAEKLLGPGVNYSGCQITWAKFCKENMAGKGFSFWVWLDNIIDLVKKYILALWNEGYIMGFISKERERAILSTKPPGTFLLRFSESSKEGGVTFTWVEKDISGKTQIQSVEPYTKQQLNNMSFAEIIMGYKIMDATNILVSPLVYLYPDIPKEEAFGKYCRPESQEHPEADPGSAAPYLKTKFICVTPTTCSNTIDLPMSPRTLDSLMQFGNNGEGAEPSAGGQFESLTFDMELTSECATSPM
c-Myc SMM: c-Myc (human) binding. AID 624141. small molecule microarray, His-c-Myc binding, anti-His fluorescence. P01106. calls only. 17,000 tested, 1.5% active;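 active = spot fluorescence over background with P-value below 7% in all four replicate spots, showing protein binding; compounds were printed on slides so no solution concentration is given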;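 note: score is binary with 100 for all four spots passing and 0 otherwise; about 2 pmol printed per array spot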
Calls only; i = inactive; . = not tested or not shown; + = active, no number. This is a subset, so the mix of outcomes need not match the whole.

The line under a structure holds: p53 mut binder | ID4 binder | STAT3 binder | c-Myc SMM
(1) COc1ccc(CN(C)C[C@H]2Oc3ccc(NC(=O)Nc4ccc(C(F)(F)F)cc4)cc3C(=O)N([C@@H](C)CO)C[C@H]2C)cc1
    i | i | i | i
(2) CC(C)NC(=O)N(C)C[C@@H]1OCCCC[C@H](C)Oc2ccc(NS(=O)(=O)c3ccc(Cl)cc3)cc2C(=O)N([C@H](C)CO)C[C@@H]1C
    i | . | i | i
(3) C[C@H]1CCCCO[C@H](CN(C)C(=O)Nc2cccc3ccccc23)[C@@H](C)CN([C@@H](C)CO)C(=O)c2cc(NS(=O)(=O)c3ccc(F)cc3)ccc2O1
    i | . | i | i
(4) C[C@@H]1CN([C@H](C)CO)C(=O)c2cc(NS(=O)(=O)c3cccs3)ccc2O[C@@H]1CN(C)C(=O)Nc1ccc(C(F)(F)F)cc1
    i | . | i | i
(5) CC(=O)OC/C=C(\C)CC/C=C(\C)C(C/C=C(\CC/C=C(\C)COC(C)=O)C(=O)O)OC(C)=O (stereo unspecified)
    i | . | i | i
(6) O=S(=O)(N[C@@H]1CCCN(Cc2cccc(OCCO)c2)C1)c1cccc(F)c1
    i | + | i | i
(7) C[C@H](CO)N1C[C@H](C)[C@H](CN(C)Cc2ccc(C(=O)O)cc2)Oc2ccc(NC(=O)NC3CCCCC3)cc2C1=O
    i | i | i | i
(8) COc1ccc(Cl)cc1NC(=O)CCN1C(=O)C2C3C=CC(C4CC34)C2C1=O (stereo unspecified)
    i | i | i | i
(9) CCC(=O)c1cn(CC(=O)O)c2ccccc12
    i | i | i | i
(10) C[C@@H]1CN([C@@H](C)CO)C(=O)c2cc(NC(=O)Nc3ccc(F)cc3)ccc2O[C@@H]1CN(C)Cc1ccc2c(c1)OCO2
    i | i | i | i
(11) C[C@@H]1CCCCO[C@H](CN(C)Cc2ccc3c(c2)OCO3)[C@@H](C)CN([C@H](C)CO)C(=O)c2cc(NS(=O)(=O)c3ccccc3)ccc2O1
    i | i | i | i
(12) C[C@@H]1CN([C@@H](C)CO)C(=O)Cc2cc(N(C)C)ccc2O[C@H]1CN(C)Cc1ccc(C(F)(F)F)cc1
    i | i | i | i
(13) CC(C)NC(=O)N(C)C[C@@H]1OCCCC[C@H](C)Oc2ccc(NC(=O)c3ccccc3)cc2C(=O)N([C@H](C)CO)C[C@@H]1C
    i | i | i | i
(14) CCOC(=O)c1ncc2[nH]c3cccc(OC(C)C)c3c2c1C
    i | i | i | i
(15) Cc1cc(C(=O)Nc2cccc3c2O[C@@H](CN(C)C(=O)Nc2ccc(F)cc2)[C@H](C)CN([C@@H](C)CO)C3=O)n(C)n1
    i | i | i | i
(16) C[C@@H]1CN([C@H](C)CO)C(=O)c2cccc(NS(=O)(=O)c3cccs3)c2O[C@@H]1CN(C)C(=O)Nc1ccc(C(F)(F)F)cc1
    i | i | i | i
(17) CNC[C@H]1Oc2c(N)cccc2C(=O)N([C@H](C)CO)C[C@H]1C
    i | i | i | i
(18) COc1ccc(S(=O)(=O)N(C)C[C@@H]2Oc3ccc(NS(=O)(=O)c4cn(C)cn4)cc3CC(=O)N([C@H](C)CO)C[C@H]2C)cc1
    i | i | i | i
(19) C[C@@H]1CN([C@H](C)CO)C(=O)Cc2cc(NC(=O)c3ccncc3)ccc2O[C@@H]1CN(C)Cc1ccc(C(F)(F)F)cc1
    i | . | i | i
(20) CNC[C@H]1OCCCC[C@@H](C)Oc2ccc(NS(=O)(=O)c3ccccc3)cc2C(=O)N([C@@H](C)CO)C[C@@H]1C
    i | i | i | i
(21) Cc1c(Nc2ncnc3c2cnn3-c2ccccc2)c(=O)n(-c2ccccc2)n1C
    i | i | i | i
(22) COc1cc([C@@H]2c3cc4c(cc3C(O[C@@H]3O[C@@H]5CO[C@@H](c6cccs6)OC5[C@H](O)[C@H]3O)C3COC(=O)[C@@H]32)OCO4)cc(OC)c1O (stereo partly specified)
    i | . | i | i
(23) C[C@H]1CN([C@@H](C)CO)C(=O)c2cc(NC(=O)Nc3ccc(F)cc3)ccc2O[C@@H]1CN(C)CC1CC1
    i | i | i | i
(24) C[C@H](CO)N1C[C@H](C)[C@H](CN(C)C(=O)Nc2ccccc2)Oc2ccc(N(C)C)cc2CC1=O
    i | i | i | i
(25) C[C@@H]1O[C@@H](O[C@@H]2[C@@H](O)[C@H](O[C@@H]3[C@@H](O)[C@@H](O)[C@H](O[C@H]4[C@H](OC(=O)[C@]56CCC(C)(C)C[C@H]5C5=CCC7[C@@]8(C)C[C@H](O)[C@H](O[C@@H]9O[C@H](C(=O)O)[C@@H](O)[C@H](O)[C@H]9O)[C@@](C)(CO)C8[C@H](O)C[C@@]7(C)[C@]5(C)C[C@H]6O)O[C@@H](CO)[C@@H]4O)O[C@H]3C)OC[C@H]2O)[C@H](O)[C@H](O)[C@H]1O (stereo partly specified)
    i | i | i | i
(26) Clc1ccccc1-c1nnc(SCc2nc3ccccc3[nH]2)n1-c1ccccc1
    i | i | i | i
(27) CC(C)NC(=O)N(C)C[C@H]1Oc2ccc(NC(=O)CCN3CCOCC3)cc2C(=O)N([C@@H](C)CO)C[C@@H]1C
    i | i | i | i
(28) COCCOC(=O)N1C(=O)[C@@]2(c3cc(C#CC4=CCCCC4)ccc31)[C@H](C(N)=O)[C@H]1C(=O)O[C@H](c3ccccc3)[C@H](c3ccccc3)N1[C@@H]2c1ccccc1OCCO
    i | i | i | i
(29) CC(C)NC(=O)Nc1ccc2c(c1)C(=O)N([C@H](C)CO)C[C@@H](C)[C@@H](CN(C)Cc1ccccc1)OCCCC[C@H](C)O2
    i | i | i | i
(30) CN(C)Cc1c(O)ccc2occ(C(O)c3ccccc3)c12 (stereo unspecified)
    i | i | i | i
(31) COc1ccc(NC(=O)CSc2ncccn2)cc1Cl
    i | i | i | i
(32) C[C@H](CO)N1C[C@H](C)[C@@H](CN(C)C(=O)Nc2ccc3c(c2)OCO3)Oc2ccc(NC(=O)NC3CCCCC3)cc2CC1=O
    i | i | i | i
(33) COc1ccc(-c2nnc(SCC(=O)c3ccc(C)o3)o2)cc1
    i | i | i | i
(34) CCc1nc(SCC(=O)Nc2cccc(C(F)(F)F)c2)c(C#N)cc1C
    i | i | i | i
(35) C[C@H]1CN([C@@H](C)CO)C(=O)c2cccc(NC(=O)c3cnccn3)c2O[C@@H]1CN(C)C(=O)Nc1ccccc1
    i | + | i | i
(36) CCO[C@@H]1OC(C(=O)Nc2ccccc2)=C[C@H](C2CC2)[C@H]1CCCO
    i | i | i | i
(37) O=C(C1=C[C@@H](c2ccc3c(c2)OCO3)C[C@@H](OCCCCO)O1)N1CCOCC1
    i | i | i | i
(38) C[C@@H]1CCCCO[C@@H](CN(C)C(=O)CCCN(C)C)[C@H](C)CN([C@@H](C)CO)C(=O)c2cc(NC(=O)Cc3ccccc3)ccc2O1
    i | i | i | i
(39) C[C@@H]1CCCCO[C@H](CN(C)S(=O)(=O)c2cccs2)[C@H](C)CN([C@H](C)CO)C(=O)c2cc(NC(=O)Cc3ccccc3)ccc2O1
    i | i | i | i
(40) C[C@H]1CN([C@@H](C)CO)C(=O)CCCn2cc(nn2)CO[C@@H]1CN(C)S(=O)(=O)c1ccccc1
    i | i | i | i
(41) CN(CC(=O)Nc1ncn[nH]1)S(=O)(=O)c1ccc(Br)cc1
    i | i | i | i
(42) COC(=O)c1c(CC[C@@H](CO)NC(=O)N[C@@H](Cc2ccccc2)Cn2cc(C3(O)CCCC3)nn2)oc(C(=O)N2CCOCC2)c1C(=O)OC
    i | i | i | i
(43) C[C@@H]1CN([C@@H](C)CO)C(=O)c2cccc(NC(=O)Nc3ccc(C(F)(F)F)cc3)c2O[C@@H]1CN(C)C(=O)Nc1ccc(F)cc1
    i | i | i | i
(44) CCOC(=O)c1ccc(NC(=O)Cn2c(=O)oc3ccccc32)cc1
    i | i | i | i
(45) COC(=O)C1=CC(O[C@@H]2O[C@H](CO)[C@@H](O)[C@H](O)[C@H]2O)=C[C@H]2[C@]3(C)C[C@@H](c4ccoc4)OC(=O)[C@H]3CC[C@@]12C
    i | . | i | i

Just c-Myc SMM, for 3 of the compounds above:
no. | mol | c-Myc SMM
44 | CCOC(=O)c1ccc(NC(=O)Cn2c(=O)oc3ccccc32)cc1 | i
34 | CCc1nc(SCC(=O)Nc2cccc(C(F)(F)F)c2)c(C#N)cc1C | i
33 | COc1ccc(-c2nnc(SCC(=O)c3ccc(C)o3)o2)cc1 | i

Next results follow.
The line under a structure holds: p53 mut binder | ID4 binder | STAT3 binder | c-Myc SMM
(46) CC(C)NC(=O)N(C)C[C@H]1OCc2cnnn2CCCC(=O)N([C@@H](C)CO)C[C@@H]1C
    i | i | i | i
(47) C[C@@H]1CN([C@H](C)CO)C(=O)c2cccc(NC(=O)C3CCOCC3)c2O[C@@H]1CN(C)S(=O)(=O)c1cn(C)cn1
    i | i | i | i
(48) C[C@H]1CCCCO[C@@H](CN(C)C(=O)c2ccccc2)[C@@H](C)CN([C@@H](C)CO)C(=O)c2cc(NC(=O)Nc3ccc(F)cc3)ccc2O1
    i | i | i | i
(49) C[C@@H]1CCCCO[C@H](CN(C)C(=O)Cc2ccccc2)[C@H](C)CN([C@H](C)CO)C(=O)c2cc(NC(=O)Nc3ccc(F)cc3)ccc2O1
    i | i | i | i
(50) C[C@H](CO)N1C[C@H](C)[C@H](CN(C)C(=O)Nc2ccccc2)Oc2ncc(C#Cc3ccccc3)cc2C1=O
    i | i | i | i
(51) C[C@@H]1CN([C@H](C)CO)C(=O)Cc2cc(NC(=O)Nc3ccc(C(F)(F)F)cc3)ccc2O[C@H]1CN(C)Cc1ccc(C(F)(F)F)cc1
    i | . | i | i
(52) COC(=O)c1ccccc1NC(=O)Cn1c(=O)n(C)c(=O)c2ccccc21
    i | i | i | i
(53) CN(CC[C@@H](Oc1ccc(-c2ccccc2)cc1)c1ccc(F)cc1)CC(=O)O
    i | i | i | i
(54) COc1ccc(NC(=O)N(C)C[C@H]2OCCCC[C@H](C)Oc3ccc(NC(=O)Nc4ccc(F)cc4)cc3C(=O)N([C@@H](C)CO)C[C@@H]2C)cc1
    i | . | i | i
(55) COc1ccc(S(=O)(=O)N(C)C[C@@H]2Oc3ccc(NC(=O)CCCN(C)C)cc3C(=O)N([C@H](C)CO)C[C@@H]2C)cc1
    i | i | i | i
(56) CC(=O)N1Cc2ccccc2C[C@@]2(N=C(c3ccc(OCCCO)cc3)O[C@H]2c2ccccc2)C1=O
    i | i | i | i
(57) C[C@@H]1CN([C@@H](C)CO)C(=O)c2cc(NS(=O)(=O)c3ccc(Cl)cc3)ccc2O[C@@H](C)CCCCO[C@H]1CN(C)C
    i | i | i | i
(58) C[C@H](CO)N1C[C@H](C)[C@H](CN(C)C(=O)c2ccccc2)OCc2cn(nn2)CCCC1=O
    i | i | i | i
(59) C[C@H]1CCCCO[C@@H](CN(C)Cc2ccc(C(=O)O)cc2)[C@@H](C)CN([C@@H](C)CO)C(=O)c2cc(NS(=O)(=O)c3ccccc3)ccc2O1
    i | + | i | i
(60) Cn1c2ccccc2c2nnc(SCCN3CCCCC3)nc21
    i | + | i | +
(61) Cc1noc(C)c1NC(=O)Nc1ccc2c(c1)C(=O)N([C@@H](C)CO)C[C@@H](C)[C@@H](CN(C)C(=O)CCCN(C)C)OCCCC[C@H](C)O2
    i | i | i | i
(62) CCOc1ccccc1N1C(=O)CN=C1Nc1nc(C)cc(C)n1
    i | i | i | i
(63) CCCOc1ccc(Br)cc1-c1cc(-c2ccc(Cl)cc2)[nH]c1-c1ccncc1
    i | . | i | i
(64) C[C@H]1CN([C@@H](C)CO)C(=O)c2cccc(NC(=O)C3CCOCC3)c2O[C@@H]1CN(C)C(=O)Nc1ccc(F)cc1
    i | i | i | i
(65) Cc1ccc(C)c(NC(=O)CSc2nc(-c3ccccc3)cc(C(F)(F)F)n2)c1
    i | i | i | i
(66) CC(C)NC(=O)Nc1ccc2c(c1)C(=O)N([C@H](C)CO)C[C@@H](C)[C@H](CN(C)Cc1ccc(C(=O)O)cc1)OCCCC[C@H](C)O2
    i | i | i | i
(67) C[C@@H]1CN([C@@H](C)CO)C(=O)Cc2cc(NS(C)(=O)=O)ccc2O[C@@H]1CN(C)C(=O)Nc1ccccc1
    i | i | i | i
(68) COc1cc(O)c2c(c1)O[C@H](c1ccc(O)c(O)c1)[C@@H](O)C2=O
    i | . | i | i
(69) COc1ccc(Cl)cc1NC(=S)NCCn1cc(Cl)cn1
    i | i | i | +
(70) COc1nc(OCCNS(=O)(=O)c2ccc(C)cc2)nc(N(C)C)n1
    i | i | i | i
(71) O=C(NCCN1CCCCC1)c1ccc(I)cc1
    i | i | i | i
(72) C[C@H](CO)N1C[C@H](C)[C@H](CN(C)Cc2ccc(C(=O)O)cc2)Oc2ccc(NC(=O)Nc3ccccc3)cc2CC1=O
    i | i | i | i
(73) C[C@H]1CN([C@@H](C)CO)C(=O)c2cccc(NS(=O)(=O)c3cn(C)cn3)c2O[C@@H]1CN(C)CC1CC1
    i | i | i | i
(74) C[C@@H]1CCCCO[C@@H](CN(C)S(=O)(=O)c2ccccc2)[C@H](C)CN([C@@H](C)CO)C(=O)c2cc(NS(C)(=O)=O)ccc2O1
    i | i | i | i
(75) C[C@@H]1CN([C@H](C)CO)C(=O)CCCn2cc(nn2)CO[C@H]1CN(C)Cc1ccncc1
    i | i | i | i
(76) Cc1c(NC(=O)COc2ccc([N+](=O)[O-])cc2)cccc1-c1nc2ccccc2[nH]1
    i | i | i | i
(77) Cc1ccc(S(=O)(=O)N(C)CC(=O)Nc2cc([N+](=O)[O-])ccc2C)cc1
    i | i | i | i
